Screens as filed in PubChem BioAssay.
TAR Tat displ – TAR RNA-Tat peptide displacers, HIV-1, primary screen, biochemical, FRET, FAM/TAMRA-labeled Tat; z-score (concentration not given with the values); AID 1259389, 2018; HIV-1 TAR RNA, Tat peptide displacement FRET; hits give high values; hit rate 0.6% among 100,000;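 further: score is relative to mean and SD of negative controls; some compounds called inactive have numbers as strong as hits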
CDC25B CDK2 inh – primary biochemical HTRF screen for blockers of M-phase inducer phosphatase 2 binding to CDK2/cyclin A | HTRF CDC25B-CDK2/CyclinA binding, anti-His/anti-Flag; hits give high values | z-score (test concentration not listed) | hit rate 0.72% among 94,000 | AID 1259370, 2018 | P30305+P24941;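 further: score is relative to mean and SD of negative controls; strong numbers were not always called active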
Active calls of the source: *; . = not tested or not shown; & = joins results of further samples.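 How the source made its calls: active means z-score from 3 up in half or more of its runs; inactive means the rest.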

SMILES	TAR Tat displ	CDC25B CDK2 inh
CO[C@@H]1[C@@H](OC(=O)c2ccc(C)[nH]2)[C@@H](O)C(Oc2ccc3c(O)c(NC(=O)c4[nH]cc(C(=O)Nc5c(O)c6ccc(OC7OC(C)(C)[C@@H](OC)[C@H](OC(=O)c8ccc(C)[nH]8)[C@@H]7O)c(C)c6oc5=O)c4C)c(=O)oc3c2C)OC1(C)C (stereo partly specified)	1.7	.
O=C(c1ccc(N2CCCc3ccccc32)s1)N1CCC(N2CCCCC2)CC1	0.23	.
COc1cccc(-c2nc(C(N)=O)c3[nH]c(=O)n(C4CCCCC4)c3n2)c1O	-0.2	0.02
Cn1nnnc1SCCNCc1ccccc1Cl	1.2	-0.2
O=C(Nc1ccc(-n2nncc2-c2ccco2)cc1)c1cnc2n(c1=O)CCS2	7.3*	.
COCCOC(=O)C1=C(C)N=C2SCCC(=O)N2C1c1ccccc1Cl (stereo unspecified)	-1.4	-1.5
CC(C(=O)Nc1ccccc1)n1nnc2sc3c(c2c1=O)CCCC3 (stereo unspecified)	-1.2	-1.1
Cc1ccc2nc3sc(C(=O)NCc4ccc5c(c4)OCO5)cc3cc2c1	1.3	.
O=C(c1nc2ncccn2n1)N1CCN(c2ccc(F)cc2)CC1	-0.74	-2.1
COc1ccc(-c2nc(SCc3cc(=O)n4nc(C)sc4n3)n[nH]2)cc1	1.3	.
NC(=O)C1CCN(c2ncnc3scc(-c4ccc(Cl)cc4)c23)CC1	0.9	-1.2
O=C(Cn1cc(S(=O)(=O)Cc2cccc(F)c2)c2ccccc21)N1CCCC1	0.21	.
CCOC(=O)c1cnn(C(=O)OCC)c1N	0.5	-1
CC(=O)Nc1nnc(SCc2nc3ccccc3nc2C)s1	-1.2	2.1
Cc1nc(-c2csc(S(=O)(=O)N3c4ccccc4CC3C)c2)no1 (stereo unspecified)	1.6	.
COCCOC(=O)c1c(C)n(S(C)(=O)=O)c2ccc(NS(C)(=O)=O)cc12	0.14	0.03
CC(C)CCNS(=O)(=O)c1ccc2c(c1)CCN2C(=O)CCC(=O)O	1	-1.5
Cn1ccc(NC(=O)NC(=O)c2c(F)cccc2F)n1	.	-1.5
CCCOc1ccc(-c2cccc(NS(=O)(=O)c3c(C)noc3C)c2)nn1	-0.02	.
O=C(Nc1nncs1)c1ccc(-n2nnnc2SCc2ccc(Cl)cc2)cc1	2.4	.
CC(=O)N1CC(C)Sc2ccc(S(=O)(=O)NC(C)(C)C)cc21 (stereo unspecified)	-7.8	.
CCCn1c(C2CC(=O)N(c3cc(C)cc(C)c3)C2)nc2ccccc21 (stereo unspecified)	1.5	-2.3
O=C(CCC1CCCC1)Nc1ccc2nc3n(c(=O)c2c1)CCCCC3	0.28	-2.1
CC(C)(C)NC(=O)c1cc2n(n1)C(C(F)(F)F)CC(c1ccco1)N2 (stereo unspecified)	-0.07	-0.86
Cc1ccc(C2=Nn3c(nnc3-c3ccccc3)SC2)cc1C	0.77	.
COc1cccc(C2CC(=O)C3=C(C2)Nc2ccccc2NC3c2cccc(F)c2)c1 (stereo unspecified)	.	-0.67
Cc1ccc2c(c1)N(S(=O)(=O)c1cc(F)ccc1CN1C(=O)c3cccnc3C1=O)CCO2	2.1	.
COc1ccc(OC)c(Nc2cc(-c3ccccc3)nc(N)n2)c1	.	-0.51
O=c1oc(-c2ccccc2)nc2c1oc1ccc(Cl)cc12	4.7	-0.6
N#Cc1cn(C2CCN(Cc3ccccc3)CC2)c(=O)[nH]c1=O	.	-0.89
CCn1ncc(C2=NOC(C(=O)Nc3c(C)nn(Cc4ccc(F)cc4)c3C)C2)c1C (stereo unspecified)	1.8	0.45
O=C(O)c1c2c(nc3ccc(S(=O)(=O)N4CCC(C(=O)O)CC4)cc13)CCCC2	-0.5	.
Nc1cc(=O)[nH]c(=O)n1Cc1ccccc1	0.28	-1&-1.2
Brc1cccc(-c2csc(-c3ccccn3)n2)c1	1.5	-1.5
COc1ccc(-c2cc(C(=O)O)c3c(-c4ccccc4)[nH]nc3n2)cc1Br	0.64	.
Cc1ccc2c(c1)N(CCCC(=O)O)C(=O)CO2	.	1.7
Cc1cc(C)c(OCc2nnnn2-c2ccccc2)c(C)c1	1.1	-2.1
C[C@H]1OC(n2cc(F)c(=O)[nH]c2=O)C(O)[C@@H]1O (stereo partly specified)	0.13	.
CCCN1C(=O)C(CC(C)=O)(OC(C)=O)c2ccccc21 (stereo unspecified)	.	-1.5
Cc1[nH]n(-c2ccccc2)c(=S)c1C=Nc1ccccc1Cl	1.4	-5.3

Compounds shown so far that contain an aryl thioether with sulfur outside any ring, in the order listed:
SMILES	TAR Tat displ	CDC25B CDK2 inh
Cn1nnnc1SCCNCc1ccccc1Cl	1.2	-0.2
COc1ccc(-c2nc(SCc3cc(=O)n4nc(C)sc4n3)n[nH]2)cc1	1.3	.
CC(=O)Nc1nnc(SCc2nc3ccccc3nc2C)s1	-1.2	2.1
O=C(Nc1nncs1)c1ccc(-n2nnnc2SCc2ccc(Cl)cc2)cc1	2.4	.

Later entries.
SMILES	TAR Tat displ	CDC25B CDK2 inh
O=C(Cn1nc(C(F)(F)F)c2c1CCCC2)Nc1ccc2c(c1)OCO2	.	-0.31
Cc1ccc(S(=O)(=O)NCCn2ccc3ccccc32)cc1	.	-1.5
CCOc1ccc(C(Nc2ccccn2)c2ccc3cccnc3c2O)cc1 (stereo unspecified)	.	0.09
CNC(=O)Sc1ccccc1Cl	.	-0.84
CCCCN1C(=O)N(c2cc(C)ccc2C)C2CS(=O)(=O)CC21 (stereo unspecified)	2.9	0.01
CCOC(=O)c1cc(S(=O)(=O)N2CCCC2C(=O)N2CCC(N3CCCCC3)CC2)cn1C (stereo unspecified)	-1.7	.
CC(C)OCCCNS(=O)(=O)c1ccc2c(c1)oc(=O)n2C	.	-1.7
O=C(OCc1nc2c(ccc3ccccc32)[nH]1)C1CCCCC1	3.1	-0.77
Cc1nc(-c2noc(C)n2)no1	.	-0.36
O=S1(=O)C[C@H](N2CCCCC2)[C@@H](S(=O)(=O)c2ccccc2)C1	-0.66	-2.1
CCc1ccc(Cn2c(CN)nc3cccnc32)cc1	-0.24	0.7
Cc1ncc(-c2ccc(S(=O)(=O)NCc3ccccc3)cc2)o1	1.6	.
COc1ccc(OC)c(NC(=O)N2c3ccccc3Sc3ccccc32)c1	.	-4.7
COc1ccc(Nc2cc(N3CCN(C4CCCCC4)CC3)ncn2)cc1	0.15	-0.11
CC(C)CC(=O)Nc1nnc2n1CCCS2	1.6	.
Cc1ccc(N2CCN(c3nc4ccccc4n4c(C)nnc34)CC2)c(C)c1	1.4	-0.89
COc1ccc(OC)c(S(=O)(=O)NCC(c2ccc(N(C)C)cc2)N2CCc3ccccc32)c1 (stereo unspecified)	1.8	.
Cc1cccc(/C=C/c2ccccc2)n1	.	-1.5
COc1ccccc1C(=O)C(O)c1ccccc1OC (stereo unspecified)	0.61	-1.3
CCCCOc1ccccc1NC1=NS(=O)(=O)c2ccccc21	2	-0.76

Part of the list above in order of molecular weight, descending.
SMILES	TAR Tat displ	CDC25B CDK2 inh
COc1ccc(OC)c(NC(=O)N2c3ccccc3Sc3ccccc32)c1	.	-4.7
CCc1ccc(Cn2c(CN)nc3cccnc32)cc1	-0.24	0.7
Cc1cccc(/C=C/c2ccccc2)n1	.	-1.5

(continued)
SMILES	TAR Tat displ	CDC25B CDK2 inh
CCc1nc2c(cnn2-c2ccc(Cl)cc2)c(=O)n1-c1ccc(OC)cc1	.	-0.11
COc1cc(CCC(C)=O)ccc1OC(=O)c1ccc(Cl)cc1Cl	.	1.1
O=C(O)CCCC(=O)N1CC2CCCN2c2ccccc21 (stereo unspecified)	-2.5	6.4
CCCCSC1=NS(=O)(=O)c2ccccc2N1CCC	2.1	.
O=C1C(=O)N(CCCn2ccnc2)C(c2cccnc2)/C1=C(\O)c1ccc(Cl)cc1 (stereo unspecified)	1.7	0.42
CCOc1ccc2ncc(C(=O)c3ccc(C)cc3)c(N3CCCC3)c2c1	-0.65	0.09
O=C1CCCC2=C1C(c1cccc(Cl)c1)C1C(=O)c3ccccc3C1=N2 (stereo unspecified)	-0.44	-1.3
Cc1ccc(C(=O)N2N=C(c3cccc(Br)c3)CC2(O)C(F)(F)F)o1 (stereo unspecified)	.	-0.28
CCCS(=O)(=O)c1c(S(=O)(=O)CCC)c2ccccn2c1C(=O)OC	1.7	-1.6
O=C(CCn1c(=O)[nH]c2ccsc2c1=O)N1CCN(c2ccc(Cl)cc2)CC1	.	-3.1
CCOc1nc(C)ccc1-c1noc(-c2ccccc2OC)n1	0.83	-1.6
Cn1ncc2c(NCc3ccccc3)nc(NCCO)nc21	1.6	.
CSc1ncccc1C(=O)NNc1cc(Cl)ccc1Cl	.	-1.7
COc1ccc(Nc2ncnc3c2nc2n3CCCC2)c(OC)c1	-0.49	.
Cc1ccc(-c2csc(-c3cccnc3)n2)cc1	-1.1	-0.36
COc1ccccc1-c1csc(-c2c(N)c(C(=O)c3ccccc3)n3ccccc23)n1	2	0.75
O=C(CSc1nnc(-c2ccccc2F)o1)N1CCCC1	1.4	-1.6
COc1ccc(Cl)cc1C1CC(=O)Nc2cc3c(cc21)OCO3 (stereo unspecified)	.	-0.4
CC1CCCC(C)N1C(=O)Cn1cc(C(=O)C2CCCCC2)c2ccccc21 (stereo unspecified)	-0.33	-0.36
CCCCC(=O)Nc1ccc2c(c1)oc(=O)n2C	-0.37	.
CC(C)Cc1ccc(S(=O)(=O)Nc2cccc(C3NC(=O)CS3)c2)cc1 (stereo unspecified)	0.1	.
Cc1c(C(=O)NC2CCCCC2)sc2ncn(CC(=O)N3CCCC3)c(=O)c12	1.6	.
COCCCNC(=O)c1c(N2CCCC2=O)c2cc(OC)ccc2n1C	0.67	.
CCOC(=O)C(C)n1cnc2c(nnn2-c2cccc(OC)c2)c1=O (stereo unspecified)	.	-0.6
Cn1c(CN2CCN(c3ccc(Cl)cc3)CC2)nc2ccccc21	0.48	1.2
CCc1ccc(-c2cc(C)no2)cc1S(=O)(=O)Nc1c(Cl)cc(OC)cc1OC	0.45	.
Fc1ccccc1-c1noc(NCCc2ccsc2)n1	-1	.
COc1ccc(-c2cc(N)n(-c3nc(-c4ccc(F)cc4)cs3)n2)cc1	-0.45	.
C/C(=N\O)C(C)(C)Nc1cc(C(F)(F)F)cc(C(F)(F)F)c1	.	-3
CCc1nn(CCCC(=O)NC2CCCC(C)C2C)c(=O)c2cc3oc(C)cc3n12 (stereo unspecified)	-0.93	-1.5
CCSc1ncc(Cl)c(C(=O)Nc2nc3ccc(F)cc3s2)n1	-0.48	-1.9
Cc1nc2ccccn2c(=O)c1NC(=O)c1ccc(F)cc1F	0.48	.
O=C(c1cc(-c2ccccc2)on1)N(Cc1cccc(Br)c1)C1CCS(=O)(=O)C1 (stereo unspecified)	0.85	0.3
CCc1nn2c(=O)cc(COC(=O)CSc3ccccc3)nc2s1	0.61	.
CC1CN(C(=O)Nc2ccccc2Cl)c2ccccc2O1 (stereo unspecified)	1.9	.
CCc1nc2nc(C)cc(NCCc3ccccc3)n2n1	-0.84	-0.22
O=C(Nc1ccccc1SCc1cc(=O)n2c3c(sc2n1)CCCC3)c1ccco1	-1	.
COc1ccc(-c2nc(N(C)c3ccccc3)[nH]c(=O)c2C#N)cc1	.	-0.93
Clc1ccccc1-c1nc(-c2ccccc2)no1	.	-1.4
CCn1cc(C(=O)N2CCn3c(nc4ccccc43)C2)c(=O)c2ccc(C)nc21	.	0.32

Structures shown so far containing a tert-butyl group (2):
SMILES	TAR Tat displ	CDC25B CDK2 inh
CC(=O)N1CC(C)Sc2ccc(S(=O)(=O)NC(C)(C)C)cc21 (stereo unspecified)	-7.8	.
CC(C)(C)NC(=O)c1cc2n(n1)C(C(F)(F)F)CC(c1ccco1)N2 (stereo unspecified)	-0.07	-0.86

(cont.)
SMILES	TAR Tat displ	CDC25B CDK2 inh
Cc1cc(=O)oc2cc(NC(=O)Cn3c(=O)sc4ccccc43)ccc12	.	1.7
CCSc1nc(=O)c2c(n1C)NC(=O)CC2c1ccc(C)cc1C (stereo unspecified)	-0.93	-1
CCCCN1C(SCC(=O)NC2CCCC2)=NS(=O)(=O)c2ccccc21	-1.5	.
Cc1nnc2sc(Cc3ccccc3)nn12	1.3	-0.65
O=C1N2CCSC2=NC1(Nc1ccccn1)C(F)(F)F (stereo unspecified)	.	-1.4
CC(C)CC(=O)Nc1ncnc2c1C(=O)CC(C)(C)C2	0.05	0.01
CSc1nc2c(c(=O)[nH]c(=O)n2C)n1CC(O)COc1ccc(Cl)cc1 (stereo unspecified)	.	-1.1
Fc1ccc2c(c1)/C(=N/NC(=S)NCC1CCCO1)CCS2 (stereo unspecified)	.	-3.2
Cc1cccc(-c2n[nH]c(=S)n2-c2ccccc2)c1	.	-1.4
COc1cc(NC(=O)CSC2=NS(=O)(=O)c3ccccc3N2)cc(OC)c1	1.5	.

Record cards, from the list above.
Shown for CCSc1nc(=O)c2c(n1C)NC(=O)CC2c1ccc(C)cc1C (stereo unspecified) → TAR Tat displ = -0.93; CDC25B CDK2 inh = -1
Shown for CSc1nc2c(c(=O)[nH]c(=O)n2C)n1CC(O)COc1ccc(Cl)cc1 (stereo unspecified) → TAR Tat displ = .; CDC25B CDK2 inh = -1.1
Shown for Cc1nnc2sc(Cc3ccccc3)nn12 → TAR Tat displ = 1.3; CDC25B CDK2 inh = -0.65

Continued.
SMILES	TAR Tat displ	CDC25B CDK2 inh
Cc1ccc(C2C=C(C(=O)O)Nc3ncnn32)cc1 (stereo unspecified)	2.4	-0.63
O=C1CCSc2ccc(S(=O)(=O)N3CCCC3)cc2N1	0.47	.
CN1C(=O)c2ccccc2C(C(=O)O)C1c1cc(Br)ccc1O (stereo unspecified)	.	0.76
Nc1ccc(Cn2cnc(-c3nc(-c4ccc(F)cc4)no3)c2)cc1	2.8	-0.4
Cc1nc2c(C)cccn2c(=O)c1Cc1nnc(SCC(=O)N2CCOCC2)n1C	-0.19	-0.3
